Source: PubChem (Broad Institute)
FGF22 binding: shifts melting point of recombinant human FGF22; Q9HCT0; recombinant FGF22 thermal shift, SYPRO orange fluorescence; percent of sucrose octasulfate shift, DMSO zero; calls only at 9.99 µM; 1.5% of 340,000 active; AID 651658;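 active = melting point raised past a set limit in the mean and every replicate; three in four hits are not shown here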
Target sequence (Q9HCT0 whole entry, looked up): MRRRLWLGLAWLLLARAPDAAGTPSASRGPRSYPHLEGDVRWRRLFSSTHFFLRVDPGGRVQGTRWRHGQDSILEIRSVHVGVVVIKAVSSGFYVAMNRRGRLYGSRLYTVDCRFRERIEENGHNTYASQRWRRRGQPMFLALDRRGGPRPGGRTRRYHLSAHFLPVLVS
rRNA inh HTS: inhibits bacterial ribosomal RNA function over humanized ribosomes | GFP signal change (wild-type ribosome), % (no concentration beside the values) | E. coli WT GFP vs humanized-ribosome RFP mutants, fluorescence, 24 h; stronger effect = lower value; DMSO median 0, no signal -100 | 1.6% of 350,000 active | AID 720706;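 active = significant combined selectivity score with lowered wild-type GFP, culture density cut under 30%, mutant RFP and density less affected; inactive = any of these conditions unmet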; also: one replicate is shown; some compounds called inactive have numbers as strong as hits
MLL AF4-AF9 inh: MLL-AF4/AF9 protein interaction inhibition; AlphaScreen, biotin-AF4 peptide binding to FLAG-AF9; inhibition, % at 10 µM; 0.47% of 350,000 active; AID 651704;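 active = every replicate reaching a set inhibition limit, whatever the replicate mean, cut at about 25% in these data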;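 also: 0% = plate neutral control median and 100% = total signal loss; the record names both 10 and 1 µM as test concentration; the first replicate is given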
Target sequence (P42568 whole entry, looked up): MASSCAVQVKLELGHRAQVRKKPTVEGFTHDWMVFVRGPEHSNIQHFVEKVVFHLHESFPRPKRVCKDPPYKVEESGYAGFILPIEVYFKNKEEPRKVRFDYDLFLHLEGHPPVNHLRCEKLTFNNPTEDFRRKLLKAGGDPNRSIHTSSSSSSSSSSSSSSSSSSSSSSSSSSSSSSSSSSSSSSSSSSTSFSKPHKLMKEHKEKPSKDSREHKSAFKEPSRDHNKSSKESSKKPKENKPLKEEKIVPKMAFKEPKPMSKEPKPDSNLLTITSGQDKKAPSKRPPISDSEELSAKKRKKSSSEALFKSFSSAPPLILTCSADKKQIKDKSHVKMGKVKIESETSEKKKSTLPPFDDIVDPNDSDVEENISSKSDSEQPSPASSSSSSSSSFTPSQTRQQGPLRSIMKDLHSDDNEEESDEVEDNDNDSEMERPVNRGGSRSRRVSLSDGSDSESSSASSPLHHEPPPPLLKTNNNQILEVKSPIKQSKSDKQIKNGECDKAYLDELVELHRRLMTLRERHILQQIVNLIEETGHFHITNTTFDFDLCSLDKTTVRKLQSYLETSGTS
rRNA inh HTS OD600: also measured in rRNA inh HTS; calls as there; OD600 change, %; measured here: OD600 growth;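 optical density of the mix in the first replicate; 0 = DMSO median and -100 = no signal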
rRNA inh HTS RFP: second read-out of rRNA inh HTS, no call of its own (marks repeat the call); RFP signal change, %; measured here: RFP humanized mutant strains;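 first replicate; 0 = DMSO median and -100 = no signal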
* hit, by the source's call; i = inactive; & = joins results of further samples. Only part of the results is shown; rates above refer to the full screens.

1: COc1cccc(C=C2Cc3ccccc3C2=O)c1
2: CN(C)CCNC(=O)c1cccc2[nH]c(-c3ccncc3)nc12
3: C[C@@H]1CCCCO[C@@H](CN(C)C(=O)Nc2ccc(C(F)(F)F)cc2)[C@H](C)CN([C@@H](C)CO)C(=O)c2cc(NC(=O)CCC(F)(F)F)ccc2O1
4: CN1C(=O)c2cc(NC(=O)c3ccc(C(F)(F)F)cc3)ccc2OC[C@@H]2O[C@@H](CC(=O)O)CC[C@@H]21
5: N#C[C@H]1[C@H](c2ccccc2C2=CCCCC2)[C@@H](CO)N1C(=O)c1cccc(F)c1
6: C[C@H]1CN([C@@H](C)CO)C(=O)c2cc(NC(=O)Nc3cccc4ccccc34)ccc2O[C@H]1CN(C)S(=O)(=O)c1cccs1
7: COc1ccccc1CNC(=O)C[C@@H]1C[C@H]2c3cc(NC(=O)Nc4ccc(C(F)(F)F)cc4)ccc3O[C@H]2[C@@H](CO)O1
8: CO[C@H]1CN(C)C(=O)c2cc(NC(=O)c3ccc(F)cc3)ccc2OC[C@H](C)N(C(C)=O)C[C@@H]1C
9: O=C(c1ccc(F)cc1)N1CCCCN2[C@H](C1)[C@H](c1ccc(/C=C/c3ccccc3)cc1)[C@@H]2CO
10: CCOC(=O)C1(C)CCCN(C(=O)c2ccc(OC)cc2)C1 (configuration not stated)
Assay by compound	1	2	3	4	5	6	7	8	9	10
FGF22 binding	i	i	i	i	i	i	i	i	i	i
rRNA inh HTS	-17*	4	4	8	-4	-5	-5	1	-2	13
rRNA inh HTS OD600	-13*	-1	1	1	-17	-11	-1	3	-10	23
rRNA inh HTS RFP	1.6*	3.1	-1.2	2.1	3.1	-1.2	1.6	-1.8	8.0	2.5
MLL AF4-AF9 inh	4.4	-1.0	-3.5	-0.5	-2.1	-4.2	1.1	1.6	-0.2	0.5

4 entries from above, with each value named.
5. N#C[C@H]1[C@H](c2ccccc2C2=CCCCC2)[C@@H](CO)N1C(=O)c1cccc(F)c1
- FGF22 binding: i
- rRNA inh HTS: -4
- rRNA inh HTS OD600: -17
- rRNA inh HTS RFP: 3.1
- MLL AF4-AF9 inh: -2.1

6. C[C@H]1CN([C@@H](C)CO)C(=O)c2cc(NC(=O)Nc3cccc4ccccc34)ccc2O[C@H]1CN(C)S(=O)(=O)c1cccs1
- FGF22 binding: i
- rRNA inh HTS: -5
- rRNA inh HTS OD600: -11
- rRNA inh HTS RFP: -1.2
- MLL AF4-AF9 inh: -4.2

7. COc1ccccc1CNC(=O)C[C@@H]1C[C@H]2c3cc(NC(=O)Nc4ccc(C(F)(F)F)cc4)ccc3O[C@H]2[C@@H](CO)O1
- FGF22 binding: i
- rRNA inh HTS: -5
- rRNA inh HTS OD600: -1
- rRNA inh HTS RFP: 1.6
- MLL AF4-AF9 inh: 1.1

8. CO[C@H]1CN(C)C(=O)c2cc(NC(=O)c3ccc(F)cc3)ccc2OC[C@H](C)N(C(C)=O)C[C@@H]1C
- FGF22 binding: i
- rRNA inh HTS: 1
- rRNA inh HTS OD600: 3
- rRNA inh HTS RFP: -1.8
- MLL AF4-AF9 inh: 1.6

(listing goes on)
11: CC(C)NC(=O)Nc1ccc2c(c1)CC(=O)N([C@H](C)CO)C[C@@H](C)[C@@H](CN(C)C(=O)NC1CCCCC1)O2
12: CNC[C@H]1Oc2cc(Br)ccc2S(=O)(=O)N([C@@H](C)CO)C[C@H]1C
13: CC(C)(C)[S@@](=O)N1Cc2cc(C(=O)NC3CCC3)nc(-c3cccc(-c4ccccc4F)c3)c2[C@H]1CCO
14: O=[N+]([O-])c1ccc(S(=O)(=O)Nc2ccc(-c3ccccc3)cc2)cc1
15: COc1ccccc1CNC(=O)C[C@H]1C[C@H]2c3cc(NS(=O)(=O)c4ccc(F)cc4)ccc3O[C@H]2[C@@H](CO)O1
16: C[C@H](CO)N1C[C@H](C)[C@H](CN(C)Cc2ccc(-c3ccccc3)cc2)Oc2ccc(NC(=O)Nc3ccc4c(c3)OCO4)cc2CC1=O
17: CCN(C[C@H]1N[C@@](C)(C(=O)OC)[C@H]2C(=O)N(Cc3ccccc3)C(=O)[C@@H]12)C(=O)c1ccccc1
18: COc1ccc(CN2C(=O)C(CC(=O)NCc3ccco3)CC(C(=O)N(C(C)C)C(C)C)=C2C)cc1 (configuration not stated)
19: COc1ccccc1-c1noc2c1C(=O)N(Cc1cn(C3CCCC3)nn1)CC2
20: CN1CCN(C(=O)[C@H]2[C@H](CO)[C@H]3Cn4c(cccc4=O)[C@@H]2N3Cc2ccncc2)CC1
Assay by compound	11	12	13	14	15	16	17	18	19	20
FGF22 binding	i	i	i	i	i	i	i	i	i	i
rRNA inh HTS	5	4&7	-9	-8	-2	-2	7	4	11	2
rRNA inh HTS OD600	13	11&14	-20	-4	-8	-1	7	3	16	-1
rRNA inh HTS RFP	-1.3	-3.8&2.0	25	-3.4	2.0	1.5	0.5	0.7	0.7	-3.4
MLL AF4-AF9 inh	0.4	-7.0&-1.7&0.6	5.1	0.8	-2.3	1.6	1.7	-2.1	-0.5	-0.2

21: COC(=O)CCCn1cc(CN2CC(N3CCCC3)CS2(=O)=O)nn1 (configuration not stated)
22: COc1ccc(NC(=O)N(C)C[C@H]2OCCCC[C@H](C)Oc3ccc(NC(=O)Nc4ccc5c(c4)OCO5)cc3C(=O)N([C@@H](C)CO)C[C@H]2C)cc1
23: CO[C@H]1CN(C)C(=O)c2ccc(NC(=O)C3CC3)cc2OC[C@H](C)N(Cc2ccccc2)C[C@H]1C
24: C[C@@H]1CCCCO[C@H](CN(C)C(=O)Nc2ccc(F)cc2)[C@@H](C)CN([C@H](C)CO)C(=O)c2cc(NC(=O)CCC(F)(F)F)ccc2O1
25: CCC(=O)N1C[C@H](O)COC[C@H]2O[C@@H](CC(=O)NCc3ccccc3Cl)CC[C@@H]21
26: C[C@@H]1CCCCO[C@H](CN(C)C(=O)Nc2ccc(C(F)(F)F)cc2)[C@@H](C)CN([C@@H](C)CO)C(=O)c2cc(NC(=O)NC3CCCCC3)ccc2O1
27: CN1c2ccc(C#Cc3cccnc3)cc2[C@@H]2[C@@H](CCN2S(=O)(=O)c2ccccc2F)[C@@H]1CO
28: COC(=O)Cc1ccc(OC2(C)CCN(Cc3ccc(-c4ccccn4)cc3)C2)cc1 (configuration not stated)
29: CCN(CC(=O)NC1CCS(=O)(=O)C1)S(=O)(=O)c1ccc(Cl)c(C(F)(F)F)c1 (configuration not stated)
30: O=C(NCC1CC1)[C@H]1[C@H](CO)[C@H]2Cn3c(cccc3=O)[C@@H]1N2C(=O)c1cccnc1
Assay by compound	21	22	23	24	25	26	27	28	29	30
FGF22 binding	i	i	i	i	i	i	i	i	i	i
rRNA inh HTS	5	3	1	1	8	-7	-3	-9	8	3
rRNA inh HTS OD600	12	1	1	5	11	-31	5	-9	10	10
rRNA inh HTS RFP	-3.5	2.7	-0.2	-1.2	-2.0	-6.7	-1.9	3.8	1.3	-4.2
MLL AF4-AF9 inh	-1.6	0.3	0.2	-0.9	-3.2	-3.2	-0.2	2.2	0.4	-4.8

31: O=C(NC1CCCCC1)N[C@H]1C=C[C@@H](CC(=O)N2CCOCC2)O[C@H]1CO
32: O=C(C1CC1)N1C[C@@H]2[C@H](c3ccccc31)[C@@H](CO)N2C(=O)c1cccc(F)c1
33: C[C@@H]1CCCCO[C@@H](CN(C)C(=O)Nc2cccc3ccccc23)[C@H](C)CN([C@@H](C)CO)C(=O)c2cc(NS(=O)(=O)c3ccccc3)ccc2O1
34: O=S(=O)(Cc1ccccc1)N1CCCCN2[C@@H](CO)[C@H](c3ccc(-c4cncnc4)cc3)[C@@H]2C1
35: C=CCC(NC(=O)N(C)C)(C(=O)OC)C(C)O (configuration not stated)
36: C[C@H](CO)N1C[C@H](C)[C@H](CN(C)S(=O)(=O)c2cccc(F)c2)Oc2ncc(-c3cc4ccccc4o3)cc2C1=O
37: O=C(NNc1ccccc1)C(=O)NNc1ccccc1
38: CC1(C(=O)NS(=O)(=O)c2cccc(F)c2)CCN1C(=O)Cc1ccccc1 (configuration not stated)
39: CCCCOP(=O)(OCCCC)C1(C)CC(=O)CC(C)(C)C1 (configuration not stated)
40: CCS(=O)(=O)N1[C@H](CO)[C@H](c2ccc(-c3cccc(F)c3)cc2)[C@@H]1C#N
Assay by compound	31	32	33	34	35	36	37	38	39	40
FGF22 binding	i	i	i	i	i	i	i	i	i	i
rRNA inh HTS	-1	1	7	5	15	0	2	12	8	1
rRNA inh HTS OD600	3	12	2	14	24	-1	18	5	2	-7
rRNA inh HTS RFP	-3.0	-2.4	4.1	-1.4	1.4	2.5	-2.2	2.5	2.3	3.2
MLL AF4-AF9 inh	-0.4	-0.3	-0.5	-6.0	-2.4	3.1	-1.3	-0.7	-0.5	0.9

41: CN1[C@@H]2c3ccc(-c4ccncc4)c(=O)n3C[C@H]1[C@H](CO)[C@H]2C(=O)NC1CCCCC1
42: CC1(C(=O)NC2CCc3ccccc32)CCN1CCc1ccccc1 (configuration not stated)
43: CCN(Cc1ccc(Br)s1)C(=O)CSc1nnc(C2CC2)n1C1CC1
44: CC1=C(C(=O)N2CCOCC2)CC(CC(=O)NC2CCCCC2)C(=O)N1Cc1ccc(C(C)(C)C)cc1 (configuration not stated)
45: CCC(=O)N1CC2(CN(Cc3nccs3)C2)c2c(n(C)c3cc(OC)ccc23)[C@H]1CO
46: OC[C@H]1[C@@H](c2ccc(-c3ccc(F)cc3)cc2)[C@@H]2CN(Cc3ccccn3)CCCCN12
47: O=C(C[C@@H]1CC[C@H]2[C@@H](COC[C@H](O)CN2Cc2cccc(C(F)(F)F)c2)O1)NCc1ccc(F)cc1
48: C[C@@H]1CN([C@@H](C)CO)C(=O)c2cccc(N(C)C)c2O[C@H]1CN(C)S(=O)(=O)c1cn(C)cn1
49: C[C@H](CO)N1C[C@H](C)[C@@H](CN(C)Cc2ccc(Cl)c(Cl)c2)Oc2c(NC(=O)c3cnccn3)cccc2C1=O
50: COc1ccc2c3c([nH]c2c1)[C@H](CO)N(C(=O)Nc1ccc(F)cc1)CC31CN(S(=O)(=O)c2ccccc2)C1
Assay by compound	41	42	43	44	45	46	47	48	49	50
FGF22 binding	i	i	i	i	i	i	i	i	i	i
rRNA inh HTS	0	-53	-2	-5	0	-8	-4	2	-9	-2
rRNA inh HTS OD600	-6	-80	-5	-19	2	3	-1	2	-18	-18
rRNA inh HTS RFP	-2.1	-18	-1.5	2.9	-2.4	1.0	9.7	-5.3	2.6	9.3
MLL AF4-AF9 inh	2.7	4.1	-1.7	1.4	-1.5	1.6	0.2	-3.4	3.9	-1.0

51: C[C@H](CO)N1C[C@H](C)[C@H](CN(C)Cc2ccc(Oc3ccccc3)cc2)Oc2ccc(NC(=O)Cn3cnnn3)cc2C1=O
52: C[C@@H]1CN([C@@H](C)CO)C(=O)c2cc(NS(=O)(=O)c3ccccc3)ccc2O[C@H]1CN(C)C(=O)NC1CCCCC1
53: CCC(=O)Nc1ccc2c(c1)C(=O)N(C)[C@@H]1CC[C@@H](CC(=O)Nc3cccc(OC)c3)O[C@H]1CO2
54: Cc1onc(-c2ccccc2)c1-c1nnc(COC(=O)c2ccc(F)cc2)o1
55: COCC(=O)N(C)C[C@H]1Oc2ncc(Br)cc2C(=O)N([C@H](C)CO)C[C@@H]1C
56: CC1(C(=O)NCc2ccccc2Br)CCN1C(=O)C1(c2ccc(Cl)cc2)CC1 (configuration not stated)
57: Cc1cc(F)ccc1C(O)c1ncc(-c2ccc(Cl)cc2)[nH]1 (configuration not stated)
58: COc1ccc2c3c(n(C)c2c1)[C@H](CO)N(CC1CC1)CC31CCN(C(=O)CN(C)C)CC1
59: C[C@@H]1CN([C@@H](C)CO)C(=O)c2cccc(NS(=O)(=O)c3cccs3)c2O[C@@H]1CN(C)Cc1ccccc1
60: COc1cccc(-c2ccc3c(c2)[C@H]2[C@H](CCN2C(=O)CN2CCOCC2)[C@@H](CO)N3)c1
61: CCS(=O)(=O)N1CC(=O)N2[C@H](C1)[C@@H](c1ccc(-c3ccc(C)cc3)cc1)[C@@H]2CO
Assay by compound	51	52	53	54	55	56	57	58	59	60	61
FGF22 binding	i	i	i	i	i	i	i	i	i	i	i
rRNA inh HTS	0	2	1	-12	0	-33	-4	3	3	-3	3
rRNA inh HTS OD600	-17	-2	1	-32	-1	-44	-24	12	5	-3	-2
rRNA inh HTS RFP	3.2	-0.1	0.3	-0.8	-1.6	-7.3	-4.1	1.9	2.1	0.9	-0.6
MLL AF4-AF9 inh	6.7	-2.4	0.2	1.1	-1.3	-8.0	5.4	11	0.9	-1.7	-1.1
